High-throughput results (PubChem BioAssay)
Vif A3G = inhibitors of Vif binding to APOBEC3G peptide, primary screen, biochemical, TR-FRET, GST-Vif 1-94, biotin-A3G peptide, dose response retest (AID 1117319) | inhibition, %, or IC50 in µM where a hit was titrated | TR-FRET GST-Vif / biotin-A3G peptide binding; higher % means a stronger effect; test concentration not given here; strong numbers were not always called active | 260,000 compounds, 0.57% hits;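 active = above the screen mean plus three standard deviations and confirmed in dose response; inconclusive = results disagree or hit not tested in dose response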;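 also: Vif residues 1-94 fused to GST binding biotinylated APOBEC3G peptide 110-148; 0% = full assay without inhibitor and 100% = GST in place of GST-Vif; retest series ran down from 100 µM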
Calb FLC = affects C. albicans growth with fluconazole. 300,000 compounds, 0.57% hits. AID 1979. C. albicans CaCi-2 (fluconazole-resistant clinical isolate) + fluconazole, Alamar Blue growth, 48 h. growth inhibition, % (concentration not given with the values);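 active = most replicates above 75%; inconclusive = exactly half above 75%; inactive = most below 75%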;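 also: all wells also contain fluconazole at 8 µg/ml as a sub-toxic cotreatment; 0% = median of DMSO wells and 100% = median of geldanamycin control wells; wells of about 8 µL received 7.5 nL stock; the first replicate is given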
Beta2AR agonist = agonists of human beta-2 adrenergic receptor inducing internalization; Am2.2-beta2AR cells, FAP receptor internalization, flow cytometry; reference of the scale not given here; response, % (concentration not given with the values); 340,000 compounds, 0.43% hits; AID 504454;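 active = response above a set limit, near 3 SD of response in nonfluorescent compounds, cut at about 42% in these data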;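 also: stock transfer was 100 nL into about 11 µL; a reference agonist was the positive control; negative values mostly stem from fluorescent compounds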
Target sequence (P07550 whole entry, looked up): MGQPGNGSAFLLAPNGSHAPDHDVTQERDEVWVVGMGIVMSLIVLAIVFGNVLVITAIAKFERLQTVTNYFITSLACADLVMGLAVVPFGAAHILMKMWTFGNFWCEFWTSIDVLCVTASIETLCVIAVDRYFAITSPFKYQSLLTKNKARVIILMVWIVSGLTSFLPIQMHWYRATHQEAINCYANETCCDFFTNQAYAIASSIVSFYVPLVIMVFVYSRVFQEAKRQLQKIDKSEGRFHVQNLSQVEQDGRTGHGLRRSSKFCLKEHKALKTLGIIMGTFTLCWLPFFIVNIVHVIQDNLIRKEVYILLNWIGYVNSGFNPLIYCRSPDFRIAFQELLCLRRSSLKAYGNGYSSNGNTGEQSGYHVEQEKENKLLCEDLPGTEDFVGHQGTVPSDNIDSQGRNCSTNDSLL
RanGTP-Impb inh = disruptors of Ran-importin-beta complex formation – biochemical, FRET, CFP-Ran, YFP-importin-beta, homogeneous, primary screen; cell-free CFP-Ran/YFP-importin-beta FRET ratio; inhibition, % (test concentration not listed); 300,000 compounds, 1.1% hits;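 active = most replicates above 15%; inconclusive = exactly half above 15%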;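 also: 0% = DMSO wells and 100% = Ran loaded with GDP instead of GTP; wells of about 40 µL received 100 nL stock; the first replicate is given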
ALR H2O2 inh = inhibitors of human sulfhydryl oxidase ALR. purified ALR, DTT oxidation, H2O2 HRP-luminol luminescence. inhibition, % (no concentration beside the values). 290,000 compounds, 3.8% hits;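 active = mean and each replicate at 75% or more; inconclusive = only one of the two met; inactive = neither met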;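 also: stock transfer was 7.5 nL into about 7.5 µL; 0% = neutral wells and 100% = wells with inactivated enzyme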
Target sequence (P55789 whole entry, looked up): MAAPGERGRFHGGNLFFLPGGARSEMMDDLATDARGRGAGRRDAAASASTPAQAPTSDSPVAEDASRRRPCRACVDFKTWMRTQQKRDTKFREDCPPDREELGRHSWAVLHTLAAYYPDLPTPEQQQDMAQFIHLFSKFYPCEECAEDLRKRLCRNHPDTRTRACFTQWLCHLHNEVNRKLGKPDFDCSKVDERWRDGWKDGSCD
HNF4A DNA FP = change in binding of human HNF4 alpha to DNA | activity change, % at 10 µM | 360,000 compounds, 0.3% hits | HNF4a-FITC DNA binding, fluorescence polarization, 1 h | P41235; in the data active = activity change above about 30%, passing the limit was not always enough;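 also: controls were the assay level and a saturating level of protein; the project sought stronger binding though the title names inhibitors; some compounds called inactive have numbers as strong as hits; positive values seem to mean higher polarization but the record does not say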
Target sequence (P41235 whole entry, looked up): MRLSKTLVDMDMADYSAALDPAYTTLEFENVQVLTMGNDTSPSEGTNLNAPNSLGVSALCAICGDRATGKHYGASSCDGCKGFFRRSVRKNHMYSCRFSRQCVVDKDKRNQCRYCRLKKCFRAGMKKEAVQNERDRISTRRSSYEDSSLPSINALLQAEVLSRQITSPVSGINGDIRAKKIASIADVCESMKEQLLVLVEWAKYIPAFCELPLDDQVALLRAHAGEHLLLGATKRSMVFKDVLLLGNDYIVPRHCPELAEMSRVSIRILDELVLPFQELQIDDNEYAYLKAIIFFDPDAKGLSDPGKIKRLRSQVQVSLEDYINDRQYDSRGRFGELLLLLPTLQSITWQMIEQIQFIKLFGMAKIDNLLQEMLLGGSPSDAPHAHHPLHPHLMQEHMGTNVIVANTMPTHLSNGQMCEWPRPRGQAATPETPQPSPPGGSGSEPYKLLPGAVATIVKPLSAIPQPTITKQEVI
LANA-H2A inh = blocks KSHV LANA binding to histone H2A/H2B. cell-free LANA-H2A/H2B peptide, fluorescence polarization. 320,000 compounds, 0.6% hits. inhibition, % (test concentration not listed). AID 2629; in the data active = inhibition mostly above about 10%, no sharp cut-off; inactive = mostly below about 6.7%;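 also: stock transfer was 7.5 nL into about 10 µL; 0% = median of vehicle wells and 100% = median of positive control wells; one replicate is shown; the record names a cut of 25% in any replicate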
Numbers without * were called inactive; ? = inconclusive; . = no result given.

SMILES	Vif A3G	Calb FLC	Beta2AR agonist	RanGTP-Impb inh	ALR H2O2 inh	HNF4A DNA FP	LANA-H2A inh
CCOC(=O)C1=C2NC(=O)c3ccccc3N2C(=O)C1	3%	-7	6	2.2	11	-2.7	7.4
Cc1cc(C)c(C#N)c(SCC(=O)Nc2ccc(S(=O)(=O)Nc3ncccn3)cc2)n1	-13%	-6	-6	0.9	.	0.8	3.8
Cc1ccc(S(=O)(=O)N2CCN(C(=S)NCCc3ccccc3)CC2)cc1	-5%	-15	0	-2.5	-36	-2.5	2.1
COCCN1Cc2cccc(C(=O)Nc3cc(OC)ccc3OC)c2C1=O	-3%	-3	1	3.9	-31	-1.3	-1.2
CS(=O)(=O)N(Cc1ccccc1)c1ccc(C(=O)Nc2cccnc2)cc1	-9%	0	0	5.5	0	-1.2	-2.9
C=CCn1c(=O)c2ccccc2n2c(SCc3csc(-c4ccccc4)n3)nnc12	-4%	-4	-3	-2.5	99*	3.5	3.1
O=C1NC2(Nc3ccccc31)C(=O)Nc1ccccc12 (configuration not stated)	4%	6	-3	1.5	-28	4.9	5.7
N#Cc1sc2nc(N3CCCCC3)c3c(c2c1N)CCCC3	-1%	5	27	-0.8	98*	-3.9	2.2
Cc1ccc(C)c(C(=O)COC(=O)c2cc(Cl)nc3ccccc23)c1	1%	1	-3	?	-12	-0.3	7.2
O=C(COc1ccc2ccc(=O)oc2c1)Nc1ccc(CCO)cc1	.	-7	-1	-4.3	-3	3.0	1.6
O=C(NCC(c1ccco1)N1CCN(c2ccccc2)CC1)OCc1ccccc1 (configuration not stated)	?	2	-3	2.6	23	-2.7	-1.6
CC(C)CCNC(=O)C(c1ccco1)N(CC1CCCO1)C(=O)Cn1nnc2ccccc21 (configuration not stated)	19%	-3	-12	1.6	6	-2.0	8.6
c1ccc(-c2oc3ncnc(N4CCOCC4)c3c2-c2ccccc2)cc1	-3%	2	.	3.0	.	.	.
CC1=C(c2ccccc2)C(O)(c2ccccc2)C(C)C1=O (configuration not stated)	-1%	.	-1	.	.	1.7	.
O=C(c1cc2cc(Cl)ccc2oc1=O)N1CCCCCCC1	.	-3	-9	0.0	-2	-0.5	3.0
Cc1cc(CN(C)Cc2ccc(OCC(O)CN(C)Cc3ccccc3)cc2)on1 (configuration not stated)	.	-9	-11	4.5	-13	-1.1	-8.8
CC1(C)CC(=O)c2cnc(NC3CC3)nc2C1	5%	-8	1	-1.8	8	-1.5	18*
CN(C)c1nc(OCCOC(=O)COc2ccc(Cl)cc2Cl)nc(N(C)C)n1	12%	-6	15	-4.5	-15	0.4	3.8
O=C(/C=C/c1ccccc1)/C=C/c1ccccc1	.	-4	16	0.5	.	2.2	-16
O=C(CCS(=O)(=O)c1ccccc1Cl)NC1CCCCCC1	.	.	-4	.	8	0.2	1.0
O=C(CSc1nnc2ccc(-c3cccnc3)nn12)Nc1ccccc1F	0%	7	8	2.2	-10	-0.4	-2.0
CCn1cc([N+](=O)[O-])nc1C	2%	-1	12	-1.3	.	-0.4	-0.4
CC1CCN(c2ccc(C(=O)NCc3ccco3)cc2[N+](=O)[O-])CC1	.	?	2	4.2	.	-3.5	0.2
COc1cc2ccc(=O)oc2c(CC=C(C)C)c1OC	.	7	-30	2.1	-37	2.9	3.4
COc1ccc(OC)c(NC(=O)C(=O)N/N=C(\C)CC(=O)Nc2ccc(Cl)cn2)c1	.	-1	-4	-1.4	-1	2.1	-3.5
(continued)
SMILES	Vif A3G	Calb FLC	Beta2AR agonist	RanGTP-Impb inh	ALR H2O2 inh	HNF4A DNA FP	LANA-H2A inh
CCc1noc(C)c1C(=O)NNC(=O)COc1ccccc1C	.	.	4	.	.	-1.0	-1.3
CCOc1ccc(Cn2ccnc2CCl)cc1[N+](=O)[O-]	-6%	-14	1	1.7	-3	3.3	-2.0
CCOC(=O)CSC1=NC(=O)/C(=C\c2ccc(Cl)cc2)S1	2%	43	23	2.2	99*	26	-4.1
Cc1cccc(C(=O)N(CC(=O)Nc2sc(C)c(C)c2C(N)=O)C2CCCC2)c1	.	13	1	0.4	18	-4.0	0.9
Fc1ccc(Cn2c(SCc3ccc(F)c(F)c3)nnc2C(F)(F)F)cc1	5%	8	-16	-0.9	-7	-2.2	1.5
COCCNC(C(=O)Nc1cc(Cl)cc(Cl)c1)c1ccccc1 (configuration not stated)	5%	-25	-5	4.3	-6	-0.3	-4.9
CCc1c(C)c(C#N)c2[nH]c3ccccc3n2c1=S	.	8	8	9.8	-8	2.5	-0.2
C#CCOCCOCCOCCNc1nc(N2CCN(C(=O)Cn3cc(CCCN=C(N)N)nn3)CC2)nc(N2CCN(C(=O)[C@H]([C@@H](C)CC)n3cc(CCC(=O)O)nn3)CC2)n1	-1%	-13	-3	3.0	-1	2.6	-0.5
CCN(CC)S(=O)(=O)c1cccc(NC(=O)CSc2nnc(N)s2)c1	6%	-1	4	30*	99*	0.6	-4.5
Cc1cnc(C(=O)OCC(=O)c2c(N)n(CC(C)C)c(=O)n(C)c2=O)cn1	6%	3	-8	6.7	-5	-1.5	1.7
O=C(c1ccco1)n1nc(-c2cccnc2)nc1NCc1ccco1	10%	1	-5	0.9	.	0.8	-0.8
CN(C(=O)C1CCCCC1)C1CCS(=O)(=O)C1 (configuration not stated)	8%	-4	10	-2.1	-2	-3.0	2.8
O=C(CC12CC3CC(CC(C3)C1)C2)NCC(c1ccc(F)cc1)N1CCOCC1 (configuration not stated)	4%	-13	8	-0.9	.	3.9	-4.8
CCCCNC(=O)c1onc(CSc2nc3ccccc3[nH]2)c1C(=O)NCCCC	.	2	-11	3.8	5	4.0	0.5
Cc1ccc(NC(=O)CCN2CCc3ccccc3C2)cc1	-9%	-13	0	5.7	-3	0.2	-0.6
Cc1ccc(S(=O)(=O)NCCCCCC(=O)Nc2ccccc2C)cc1	-8%	-6	-1	-2.1	-6	5.5	-0.6
O=C(CCCc1ccccc1)Nc1ccccc1[N+](=O)[O-]	.	3	9	3.3	-6	-0.7	1.6
C/C(CC(=O)Nc1cc(C)ccn1)=N\NC(=O)c1ccncc1	-3%	9	4	6.4	3	0.7	6.3
O=C(Nc1cccc2ccccc12)N1CCc2ccccc2C1	5%	-30	-14	0.8	-14	1.6	-5.0
Cc1ccccc1NC(=O)CCN1CCCCCC1	.	-2	7	7.4	-2	-1.2	0.7
Cc1cccc(COc2ncnc3nc[nH]c23)c1	-2%	1	-5	0.0	-3	-3.2	-31
COc1ccc(C(=O)Nc2cccc(-c3nc4ncccc4o3)c2C)cc1OC	4%	-5	2	32	0	1.2	-0.4
CCNC(=S)Nc1cccc(NC(=O)c2ccccc2O)c1	-1%	5	9	-2.7	6	-1.5	-2.3
CC1=C(C(=O)OCC2CCCO2)C(c2ccccc2)C2=C(CCCC2=O)N1 (configuration not stated)	-1%	11	-13	?	1	1.5	-2.8
CC(C)Oc1cccc(C(=O)NC(=S)Nc2ccc(Cl)c(C(=O)O)c2)c1	0%	-7	-12	0.2	24	-0.3	-3.4

Of the compounds above, these contain a nitro group on carbon.
SMILES	Vif A3G	Calb FLC	Beta2AR agonist	RanGTP-Impb inh	ALR H2O2 inh	HNF4A DNA FP	LANA-H2A inh
CCn1cc([N+](=O)[O-])nc1C	2%	-1	12	-1.3	.	-0.4	-0.4
CC1CCN(c2ccc(C(=O)NCc3ccco3)cc2[N+](=O)[O-])CC1	.	?	2	4.2	.	-3.5	0.2
CCOc1ccc(Cn2ccnc2CCl)cc1[N+](=O)[O-]	-6%	-14	1	1.7	-3	3.3	-2.0
O=C(CCCc1ccccc1)Nc1ccccc1[N+](=O)[O-]	.	3	9	3.3	-6	-0.7	1.6

(list continues)
SMILES	Vif A3G	Calb FLC	Beta2AR agonist	RanGTP-Impb inh	ALR H2O2 inh	HNF4A DNA FP	LANA-H2A inh
Cc1ccc(CC2CC(=O)N(c3nc(C)cc(C)n3)C2=O)cc1 (configuration not stated)	-3%	-7	2	1.9	-6	0.5	5.9
CC(C)C(C(=O)NCc1ccco1)N(Cc1ccco1)C(=O)CNS(=O)(=O)c1ccccc1 (configuration not stated)	-2%	-6	2	-0.5	-1	0.6	-1.4
Cc1cccc2c(C(=O)n3cccn3)cc(-c3ccccc3Cl)nc12	0%	13	-3	0.6	-1	4.1	-1.8
Cc1nn2c(NCCN3CCOCC3)c3c(nc2c1-c1ccccc1)CCCC3	?	0	-17	-0.9	13	-2.2	0.0
CNC(=O)c1csc(Cc2c(Cl)sc3ccc(Cl)cc23)n1	-6%	0	-3	-0.6	7	5.6	-2.5
CCCCN(Cc1ccccc1)C1CCN(Cc2ccccc2)CC1	.	-5	6	2.3	.	3.1	-7.6
O=C(CCc1nnc(CCCCc2ccccc2)o1)N(CCO)Cc1ccccc1	4%	7	15	1.8	4	-0.1	0.2
CCC(C)[C@H]1COCCS(=O)(=O)N1Cc1ccccc1 (some centres not stated)	.	-6	0	3.5	2	3.6	-2.1
COc1ccc(C(=O)C2CC2c2ccc3c(c2)OCO3)cc1 (configuration not stated)	-8%	-40	0	-4.7	-13	0.8	3.7
CC(C)COC(=O)c1ccc(NC(=O)C2C3C=CC(C3)C2C(=O)O)cc1 (configuration not stated)	-9%	0	38	-4.1	-1	-2.4	-2.6
CCC(NC(=O)COC(=O)C1CC2CCCC(C1)C2=O)c1ccc(Br)cc1 (configuration not stated)	9%	-11	-2	2.7	-7	-3.8	-4.3
CC1=C(C(=O)Nc2ccccc2)C(c2ccc(C(C)C)cc2)N2C(=O)CSC2=N1 (configuration not stated)	0%	7	-8	6.6	4	3.2	12
O=C(/C=C/c1ccccc1)N/C(=C/c1ccccc1)C(=O)NCCO	0%	?	1	2.2	-2	-1.4	2.5
CCS(=O)(=O)Nc1cccc(C(=O)CC2(O)C(=O)Nc3ccccc32)c1 (configuration not stated)	0%	-2	4	-4.5	.	0.8	-6.0
CC(C)=CCc1c(O)cc(O)c2c(=O)c3c(CC=C(C)C)c(O)ccc3oc12	.	-7	.	0.5	-3	.	-2.2
CSc1nc2ccc(NC(=O)c3ccc(=O)[nH]c3)cc2s1	.	-15	-7	-3.5	-5	1.1	-0.5
Cc1ccsc1/C=N/NC(=O)C(N)=O	1%	-10	3	-0.4	-11	0.6	-2.5
CCN(CC)S(=O)(=O)c1cccc(C(=O)Nc2ccc(S(=O)(=O)NC3=NCCCCC3)cc2)c1	8%	-2	-1	-4.4	6	2.3	-0.9
CCOc1ccccc1NC(=O)Nc1ccc2c(c1)CCC2	.	-8	27	4.4	-3	1.4	-3.8
CC1=C(C(=O)OCc2ccccc2)C(c2ccc3c(c2)OCO3)NC(=O)N1CCCC(=O)O (configuration not stated)	.	-7	5	-0.3	.	0.3	-3.1
COC(=O)c1ccc(CN2CCCC(CO)(Cc3ccccc3F)C2)cc1 (configuration not stated)	.	0	-2	1.8	-1	2.0	2.0
O=C(NCC1CCS(=O)(=O)C1)Oc1ccccc1 (configuration not stated)	2%	-11	2	0.2	-2	2.3	-0.2
CCOC(=O)Cn1c(=NC(=O)c2nc3ccccc3s2)sc2cc(S(N)(=O)=O)ccc21	-191%	-3	-19	2.9	-11	-0.6	2.7
O=c1c2ccccc2nnn1Cc1ccc(Br)cc1	1%	-7	-3	-1.2	0	-4.9	-6.5
O=S(=O)(N/N=C1/CCCc2ccccc21)c1ccc(Br)cc1	25%	1	16	-2.0	12	-0.2	3.5
CCCC(=O)Nc1sc(-c2ccccc2)c(-c2ccccc2)c1C(=O)O	.	14	4	5.3	62	0.1	1.5
N#Cc1c(N)nc2c(c1-c1ccc3c(c1)OCO3)CCCCCC2	-4%	-9	9	-0.4	3	0.8	-1.0
CC1=CS(=O)(=O)CC1Sc1nc2ccccc2[nH]1 (configuration not stated)	9%	-5	-6	5.5	-6	-1.6	3.5

An unsorted share of the library. About 6.3% of those tested had a hit in this group.
